Compound activity (PubChem BioAssay)
Menin-MLL FL inh: displaces fluorescein MLL peptide from human menin; 290,000 tested, under 10 active; FP activity change, % at 61.4 µM; Fluorescence polarization, fluorescein-MLL peptide displacement from menin; AID 1766; inconclusive = falling polarisation curve, or a change in total fluorescence; inactive = total fluorescence flat and polarisation flat or rising; no compound was filed as active; the % refers to the polarisation; negative = inhibition;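 further: % of control where 0% means no effect; inhibitors lower the polarisation; unlabelled MLL peptide was the positive control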
TRPV1 PAM: potentiators of human vanilloid receptor 1 (TRPV1) | TRPV1-expressing cells, Fluo-8 calcium influx, capsaicin EC20 potentiation; host cell line not named in the record; control for the full effect not named in the record | potentiation, % at 8.33 µM | 0.02% of 320,000 active; active means potentiation above 80%; inconclusive means 30% to 80%; inactive means below 30%; further: 0% is about no effect
Target sequence (Q8NER1 whole entry, looked up): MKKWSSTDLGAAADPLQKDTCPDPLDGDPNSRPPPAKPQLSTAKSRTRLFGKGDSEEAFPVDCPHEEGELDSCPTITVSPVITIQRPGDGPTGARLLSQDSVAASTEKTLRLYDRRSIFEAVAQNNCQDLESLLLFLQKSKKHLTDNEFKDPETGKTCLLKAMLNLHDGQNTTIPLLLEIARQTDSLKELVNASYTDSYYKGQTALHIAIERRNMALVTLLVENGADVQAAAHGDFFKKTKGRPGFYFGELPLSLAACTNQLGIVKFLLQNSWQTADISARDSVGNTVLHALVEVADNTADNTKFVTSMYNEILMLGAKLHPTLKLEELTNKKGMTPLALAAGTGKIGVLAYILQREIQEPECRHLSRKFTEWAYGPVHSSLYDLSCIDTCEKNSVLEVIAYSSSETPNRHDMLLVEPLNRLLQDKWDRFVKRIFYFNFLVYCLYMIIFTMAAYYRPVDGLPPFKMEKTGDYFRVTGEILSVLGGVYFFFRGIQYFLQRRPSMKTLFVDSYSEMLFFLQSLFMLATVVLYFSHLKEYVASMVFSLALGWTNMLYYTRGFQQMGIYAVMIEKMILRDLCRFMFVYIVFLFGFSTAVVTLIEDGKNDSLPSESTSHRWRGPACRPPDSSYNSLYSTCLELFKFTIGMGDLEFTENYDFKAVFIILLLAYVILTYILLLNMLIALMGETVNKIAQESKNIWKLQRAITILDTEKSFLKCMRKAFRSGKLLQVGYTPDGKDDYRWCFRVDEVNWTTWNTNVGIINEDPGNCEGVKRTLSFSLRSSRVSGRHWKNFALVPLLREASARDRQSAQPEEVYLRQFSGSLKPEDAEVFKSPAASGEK
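Cells expressing TRPV1 were dye-loaded with Fluo-8 and read kinetically: 10 s baseline, 3 min after compound (agonist portion), then 2 min after EC20 capsaicin (allosteric enhancer portion). Calcium-bound dye fluorescence at 480/520 nm.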
gsp antagonist: gsp mutant antagonism. gsp-mutant cells, cAMP HTRF, 30 min; control for the full effect not named in the record. Potency, µM (top dose mostly 76.9 µM), without a hit: at the top dose activity change, negative = inhibition, most hits filed as inhibitors. 0.4% of 340,000 active; active = falling curve of any shape with a large fitted effect; inconclusive = falling curve, mostly with a smaller effect; inactive = flat or rising curve; cell line not stated here;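 further: intracellular cAMP measured with PDE inhibitor Ro 20-1724 present during compound exposure; potency means the concentration at half of the fitted maximal effect; on the % scale 0 is the no-effect control and ±100 the full control effect; nearly all actives have a fitted effect of over 65% in size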
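G418-selected cells were plated in DMEM/10% FBS for 16-24 h at 37C, then treated with compounds plus the PDE inhibitor […] (300 uM solution added) for 30 min at 37C. Intracellular cAMP was measured by HTRF after 30 min lysis at room temperature.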
ClpP mod: qHTS Assay for Activators of ClpP | Potency, µM (top dose mostly 57.5 µM), without a hit: at the highest dose activity change, negative = active | purified B. subtilis ClpP, FRET peptide cleavage, 20 min | ATP-dependent Clp protease proteolytic subunit (Bacillus subtilis (strain 168)), P80244 | AID 651965, 2013 | 1.9% of 340,000 active; active = well fitted falling curve with a large enough effect; inconclusive = small, poorly fitted or top-dose-only effect; inactive = no such curve, though single readings can be large or run the other way; further: potency means the concentration at half of the fitted maximal effect; the source files actives as falling curves though it sought activators and does not explain the sign; nearly all actives have a fitted effect of over 65% in size; many hits overshoot -100%
Target sequence (P80244 whole entry, looked up): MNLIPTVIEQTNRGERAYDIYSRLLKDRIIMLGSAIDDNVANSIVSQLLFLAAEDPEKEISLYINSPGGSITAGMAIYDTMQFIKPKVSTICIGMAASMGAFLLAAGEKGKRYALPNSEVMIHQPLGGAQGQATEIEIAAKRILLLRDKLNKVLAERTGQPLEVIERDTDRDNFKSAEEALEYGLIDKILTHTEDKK
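Purified B. subtilis ClpP, 10 microg/mL final in Tris/HCl pH8 with KCl, BSA, glycerol and Tween-20, cleaved an Abz/nitrotyrosine-quenched decapeptide. Fluorescence (ex 320, em 430) was read at 0 and 20 min at room temperature. Delta was normalized to 5.8 microM ADEP and DMSO/no-enzyme controls.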
Sfp inh: Sfp phosphopantetheinyl transferase inhibition. Potency, µM, for inactives: max response, negative = inhibition, most hits filed as inhibitors. Biochemical Sfp PPTase activity, qHTS. 3.5% of 310,000 active; active means well fitted inhibition curve with a large enough effect; inconclusive means small, poorly fitted or top-dose-only effect, or another doubt; inactive means no such curve, though single readings can be large or run the other way;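 further: the enzyme is Sfp with the accession as filed and its product quenches rhodamine fluorescence; potency means the concentration at half of the fitted maximal effect; 0% = enzyme reaction without inhibitor and -100% = no enzyme wells; top concentration of the series not given in the record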
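Step 1, compound plus 15 nM Sfp-PPTase, 15 min, room temperature. Step 2, add rhodamine-CoA (5 uM) and BHQ-2-YbbR (12.5 uM). Step 3, read 525/598 nm fluorescence at 0 and 30 min.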
CtBP-E1A inh: inhibitors of CtBP/E1A interaction | AlphaScreen GST-E1A/His-CtBP binding, 1536-well; active compounds read low; control for the full effect not named in the record | activity change, % (no concentration beside the values) | 0.49% of 340,000 active | AID 651724; in the data active means activity change below about -65%; inconclusive means about -30% to -65%; inactive means above about -30%; further: on the % scale 0 is the no-effect control and ±100 the full control effect
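Homogeneous bead-based format: GST-tagged E1A captured on glutathione donor beads, His-tagged CtBP on nickel acceptor beads; compounds precede bead addition by 2 h at 37 °C.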
gsp ag: gsp mutant agonism; AID 624287; Potency, µM (titrated, usually from 76.9 µM), inactives show top-dose activation (cAMP increase), most hits filed as activators; gsp mutant cells, cAMP HTRF, 30 min; control for the full effect not named in the record; 0.13% of 340,000 active; active = well fitted activation curve with a large enough effect; inconclusive = small, poorly fitted or top-dose-only effect, or another doubt; inactive = no such curve, though single readings can be large or run the other way; cell line not stated here;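 further: phosphodiesterase inhibitor Ro 20-1724 added with compounds to block cAMP breakdown; potency means the concentration at half of the fitted maximal effect; nearly all actives have a fitted effect of over 60% in size; about a fifth of the inactives were tested at one dose only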
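Cells in DMEM/10% FBS with G418 were pretreated with compounds in DMSO plus […] (300 uM stock) for 30 min at 37C. cAMP was measured by HTRF (cAMP-d2 plus anti-cAMP antibody-K) after 30 min at room temperature.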
* = called active by the depositor; u = inconclusive; x = no result given; & = joins results of further samples; [ ] = remark or other dose.

Compound	Menin-MLL FL inh	TRPV1 PAM	gsp antagonist	ClpP mod	Sfp inh	CtBP-E1A inh	gsp ag
Cn1nc(C(F)(F)F)c2cc(NC(=O)OCc3ccc(F)cc3)sc21	-0.3	-11	0%	-0.3%	20%	4	13%
COc1ccccc1-c1cc(C(F)(F)F)nc(NCc2ccco2)n1	6.3	-20	-9%	u	19%	10	6%
CCOC(=O)N1CCC(NC(=O)Cc2ccccc2)CC1	-4.5	-2	6%	-1.5%	5%	x	-18%
O=C(Nc1ccccc1)c1nnsc1S(=O)c1ccc(Cl)cc1 (configuration not stated)	-0.7	2	-1%	0.7%	7.9µM*	-5	-21%
COc1ccccc1CNC(=O)C1CCN(C(=O)N(C)C)CC1	2.2	-7	9%	0.2%	14%	8	-12%
O=C(C(Cc1ccccc1)n1cccc1)N1CCN(C2CCCCC2)CC1 (configuration not stated)	2.3	-5	9%	-1.6%	21%	-8	u
CC1=CSC2=NC(C(F)(F)F)(C(F)(F)F)NC(=O)N12	-0.4	x	5%	-1.5%	10%	x	13%
O=C(Nc1ccc(Cl)c(Cl)c1)Nc1ccon1	0.6	-9	17%	2.9%	-8%	-5	10%[15.4 µM]
Cc1ccc(NC(=O)CSc2nc3ccccc3c(=O)n2CC2CCCO2)cc1 (configuration not stated)	x	-21	-7%	0.9%	6%	1	-6%
CC(=O)NC(c1ccccc1)c1cccnc1 (configuration not stated)	0.4	21	6%	-3.1%	0%	-15	-39%
CC1(c2ccc(OC(F)F)cc2)NC(=O)N(CC(=O)Nc2ccc(F)cc2)C1=O (configuration not stated)	-2.3	1	-4%	x	-4%	6	3%[15.4 µM]
CCC(=O)N1N=C(c2ccccc2)CC1c1ccccc1 (configuration not stated)	-5.4	-18	-3%	-0.4%	1%	-1	-11%[15.4 µM]

Carrying on:
Compound	Menin-MLL FL inh	TRPV1 PAM	gsp antagonist	ClpP mod	Sfp inh	CtBP-E1A inh	gsp ag
COc1ccc([N+](=O)[O-])cc1-n1cnnn1	2.2	1	-15%	3.5%	10%	-2	-9%[15.4 µM]
CCOC(=O)Nc1ccc2c(c1)N(C(=O)CN1CCN3CCCC3C1)c1ccccc1CC2 (configuration not stated)	-0.3	-19	4%	3.3%	11%	-2	-20%
CC(NC(=O)COc1ncnc2cc([N+](=O)[O-])ccc12)c1ccccc1 (configuration not stated)	x	25	-4%	-0.7%	6%	-3	9%
CCn1c2ccccc2c2cc(NC(=O)COc3ccccc3)ccc21	6.5	0	0%	u	0%	0	-4%
COc1cccc(C(CC(=O)NCc2ccco2)NS(=O)(=O)c2ccc(C)cc2)c1OC (configuration not stated)	7.3	-3	-13%	0.9%	-14%	4	-14%
CCCCNC(=O)Nc1cc(C(F)(F)F)c[nH]c1=O	-0.3	-3	3%	-25%	1%	0	2%
c1ccc(Nc2ccccn2)cc1	0.2	2	6%	-0.4%	6%	3	8%
Cc1onc(-c2ccccc2)c1C(=O)N1CCN(c2ccccc2F)CC1	-3.2	6	10%	x	18%	8	-40%[inhibitor]
COc1ccccc1OCCNc1cc(N2CCOCC2)ccc1[N+](=O)[O-]	2.2	3	-21%	1.8%	1%	-22	-8%
O=C(Nc1ccccc1)c1ccccc1NC(=O)c1ccccc1[N+](=O)[O-]	x	x	u	-0.6%	x	-1	-4%[15.4 µM]
CCCOc1ccc(C(=O)CCC(=O)NNC(=O)Cn2nc(C)cc2C)cc1	x	4	-1%	-0.4%	x	7	26%[15.4 µM]
CCC1CN(C(=O)N2CCC(C(=O)NCc3ccc(C)o3)CC2)c2cc(C)ccc2O1 (configuration not stated)	x	-9	u	2.8%&1.2%	-13%	-6	12%

Ordered by the number under Menin-MLL FL inh (low to high): 3 from the list above
| Structure | Menin-MLL FL inh | gsp antagonist | Sfp inh | CtBP-E1A inh | gsp ag |
| --- | --- | --- | --- | --- | --- |
| Cc1onc(-c2ccccc2)c1C(=O)N1CCN(c2ccccc2F)CC1 | -3.2 | 10% | 18% | 8 | -40%[inhibitor] |
| CCOC(=O)Nc1ccc2c(c1)N(C(=O)CN1CCN3CCCC3C1)c1ccccc1CC2 (configuration not stated) | -0.3 | 4% | 11% | -2 | -20% |
| COc1cccc(C(CC(=O)NCc2ccco2)NS(=O)(=O)c2ccc(C)cc2)c1OC (configuration not stated) | 7.3 | -13% | -14% | 4 | -14% |

(more compounds)
Compound	Menin-MLL FL inh	TRPV1 PAM	gsp antagonist	ClpP mod	Sfp inh	CtBP-E1A inh	gsp ag
Cc1cccc(NC(=O)CCc2nc3sc4c(c3c(=O)[nH]2)CCCC4)n1	x	13	-9%	-19%	x	u	-13%
C/C(Cl)=C/Cn1c(=O)c2c(nc(Br)n2Cc2ccccc2)n(C)c1=O	4.2	6	6%	0.8%	-3%	9	5%
CC(=O)Cc1nsc(NC(=O)c2ccc(-c3cc(C(F)(F)F)ccc3Cl)o2)n1	0.9	-16	-3%	-6.6%	21%	-2	-44%[inhibitor]
CCn1c(Cc2c(C)[nH]c3ccccc23)nnc1SCC(N)=O	-0.6	5	3%	1.0%	15%	0	22%
O=C(NC(CSCc1ccccc1)C(=O)N/N=C/c1ccc(O)cc1O)c1ccc([N+](=O)[O-])cc1 (configuration not stated)	6.3	0	-15%	-0.2%	u	u	-9%
CCO[C@@H]1OC(C(=O)Nc2ccccc2)=C[C@H](C)[C@H]1CCCO	x	x	-6%	0.6%	x	1	28%
CN(C)C1(CNC(=O)C2CCN(S(=O)(=O)c3cc(Cl)ccc3Cl)CC2)CCCCC1	x	-3	-13%	-1.8%	12%	-1	4%
O=C(NCc1ccccc1)c1cc(-n2cnnc2)ccc1Cl	0.6	9	5%	u	10%	4	-9%
CSc1nc2[nH]c3c(c2c2nncn12)CC(C)(C)OC3	1.3	5	-1%	-4.0%	21%	-9	u
O=C(N[C@@H](Cc1ccccc1)C(=O)OCc1ccccc1)c1nc[nH]c1C(=O)NC(c1ccccc1)c1ccccc1	1.5	8	9%	-1.4%	17%	-6	10%
COc1ccc(C(=O)Nc2nccs2)cc1	1.5	5	1%	-23%	15%	-1	2%[15.4 µM]
CCOC(=O)c1sc(NC(=O)c2cc3n(n2)C(C(F)(F)F)CC(c2cccs2)N3)c(C(=O)OCC)c1C (configuration not stated)	-0.5	2	6%	-2.4%	-3%	1	-8%

Whole records as entered above:
CCO[C@@H]1OC(C(=O)Nc2ccccc2)=C[C@H](C)[C@H]1CCCO as listed: Menin-MLL FL inh = x; TRPV1 PAM = x; gsp antagonist = -6%; ClpP mod = 0.6%; Sfp inh = x; CtBP-E1A inh = 1; gsp ag = 28%
CN(C)C1(CNC(=O)C2CCN(S(=O)(=O)c3cc(Cl)ccc3Cl)CC2)CCCCC1 as listed: Menin-MLL FL inh = x; TRPV1 PAM = -3; gsp antagonist = -13%; ClpP mod = -1.8%; Sfp inh = 12%; CtBP-E1A inh = -1; gsp ag = 4%

Later entries
Compound	Menin-MLL FL inh	TRPV1 PAM	gsp antagonist	ClpP mod	Sfp inh	CtBP-E1A inh	gsp ag
COC(=O)C(NS(C)(=O)=O)(c1c(C)[nH]c2ccccc12)C(F)(F)F (configuration not stated)	6.0	-6	10%	-0.1%	10%	-4	2%
COc1ccc(OCCCCN(C)Cc2ccccc2)cc1	8.0	-7	5%	1.0%	-26%	4	3%
COc1cccc(C2CC(c3ccccc3OC)n3nc(N)nc3N2)c1 (configuration not stated)	1.1	x	1%	-0.3%	19%	-20	u
CC(=O)c1cc(C#N)c(Oc2cccc(C(F)(F)F)c2)nc1C	16	2	-21%	-0.1%	9%	16	-25%
CCOc1ccc(CNC(=O)CCC(=O)N2Cc3cccc(OC)c3Oc3ncccc32)cc1	x	20	-1%	-3.1%	3%	x	-3%
Cc1ccn2c(NC3CCCC3)c(-c3cccs3)nc2c1	6.7	-22	-25%	x	-19%	-2	13%[15.4 µM]
COC(=O)c1[nH]c2ccccc2c1NC(=O)CN1CCC(C(N)=O)(N2CCCCC2)CC1	2.2	21	-1%	-30%	9%	0	-22%
COc1cc(NC2c3ccccc3C(=O)N2Cc2ccc3c(c2)OCO3)cc(OC)c1OC (configuration not stated)	3.0	-18	-5%	1.1%	8%	-10	-62%[inhibitor]
COc1ccc(C(=O)Nc2cccc(/C=C/c3nc4ccccc4c(=O)[nH]3)c2)cc1	1.5	-1	-11%	3.9%	-21%	-14	-9%
CCN(CC)S(=O)(=O)c1ccc(N2CCCCC2)c(NC(=O)C2CSC3(C)CCC(=O)N23)c1 (configuration not stated)	x	x	x	2.3%	x	-4	-66%[inhibitor]
CCOc1ccc(S(=O)(=O)n2nc(C)c(S(=O)(=O)N3CCOCC3)c2C)cc1	-5.7	13	-16%	1.0%	-1%	7	u
Cc1ccc(S(=O)(=O)N(C)c2ccccc2C(=O)N2CCCC2)cc1	x	u	2%	-0.2%	-2%	-3	-31%

Following part
Compound	Menin-MLL FL inh	TRPV1 PAM	gsp antagonist	ClpP mod	Sfp inh	CtBP-E1A inh	gsp ag
CCN(C(=O)c1cc2c(=O)n3cccc(C)c3nc2s1)C1CCCCC1	-0.8	4	10%	x	-8%	5	u
NC(=O)CCC(C(=O)O)N1C(=O)c2ccc(O)cc2C1=O (configuration not stated)	-17	-7	-1%	x	-22%	6	-7%[15.4 µM]
COC(=O)c1ccc(OCC2NCCc3cc(OC)c(OC)cc32)cc1 (configuration not stated)	-3.0	2	5%	-2.4%	2%	x	30%
O=C(CNC(=O)C1CC1)Nc1ccc(F)c(F)c1F	x	x	7%	x	x	5	-26%
Cc1ccc(-c2c(C#N)c(N)nc3c2CCCCC3)o1	4.9	-3	0%	4.7%	50µM*	-6	u
CCc1nonc1NC(=O)c1oc2ccc(C)cc2c1C	x	0	7%	-12%&-21%	4%	x	25%
O=C(Nc1ccccc1)Nc1cccc(-c2cn3cccnc3n2)c1	5.4	4	-11%	x	19%	5	6%[15.4 µM]
O=C(CC1(O)C(=O)Nc2ccccc21)c1cccc(Br)c1 (configuration not stated)	x	u	-3%	-4.7%	3%	-2	-7%
CN(Cc1ccccc1)CC1C2CCC(C2)C1O (configuration not stated)	x	x	9%	x	x	-18	-23%
COCCOC(=O)CC1=NC(=O)CS1	-2.9	-19	7%	1.1%	22%	-1	-7%
CNc1c(NS(=O)(=O)c2ccc(CC(C)C)cc2)c(=O)oc2ccccc12	-5.4	0	6%	x	-5%	3	u
